# Screens deposited in PubChem by National Center for Advancing Translational Sciences (NCATS).
# Six1-Eya2 blk: Six1/Eya2 interaction inhibition; AlphaScreen GST-Six1/His-Eya2 binding, biochemical; active compounds read low; control for the full effect not named in the record; Q15475+O00167; 360,000 tested, 0.56% active; activity change, % (test concentration not listed); in the data active = activity change below about -65%; inconclusive = about -30% to -65%; inactive = above about -30%; further: on the % scale 0 is the no-effect control and ±100 the full control effect
# Target sequence (O00167 whole entry, looked up): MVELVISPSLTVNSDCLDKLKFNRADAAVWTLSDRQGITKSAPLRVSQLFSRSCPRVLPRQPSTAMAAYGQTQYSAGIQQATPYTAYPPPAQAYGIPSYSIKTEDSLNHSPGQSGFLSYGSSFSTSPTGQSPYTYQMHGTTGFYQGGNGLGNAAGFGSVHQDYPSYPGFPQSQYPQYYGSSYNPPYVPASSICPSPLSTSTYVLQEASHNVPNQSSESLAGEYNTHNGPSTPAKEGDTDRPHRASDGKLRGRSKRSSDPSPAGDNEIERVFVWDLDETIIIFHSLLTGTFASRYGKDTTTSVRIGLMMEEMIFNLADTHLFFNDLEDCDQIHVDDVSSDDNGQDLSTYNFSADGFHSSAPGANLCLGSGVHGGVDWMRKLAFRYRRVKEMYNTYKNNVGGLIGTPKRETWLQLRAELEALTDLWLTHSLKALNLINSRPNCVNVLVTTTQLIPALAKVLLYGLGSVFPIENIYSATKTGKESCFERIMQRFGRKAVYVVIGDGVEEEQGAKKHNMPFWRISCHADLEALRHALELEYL
# Target sequence (Q15475 whole entry, looked up): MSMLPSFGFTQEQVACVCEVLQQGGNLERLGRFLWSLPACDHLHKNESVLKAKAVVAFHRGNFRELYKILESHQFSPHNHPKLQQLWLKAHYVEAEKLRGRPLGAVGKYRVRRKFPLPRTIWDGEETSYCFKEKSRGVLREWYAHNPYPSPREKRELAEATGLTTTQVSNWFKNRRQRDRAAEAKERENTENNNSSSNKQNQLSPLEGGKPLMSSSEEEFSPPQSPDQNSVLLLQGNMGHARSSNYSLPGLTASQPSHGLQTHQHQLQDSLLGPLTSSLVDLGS
#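 AlphaScreen with GST-Six1 and His-Eya2 (5X mix: 250 nM and 500 nM), glutathione donor and nickel acceptor beads; buffer 50 mM Tris pH 8.0, 300 mM NaCl, 1 mM TCEP; 1 h at 37 C in the dark.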
# TRPML1 inh: human mucolipin-1 channel inhibition | TRPML1-inducible cells, Ca2+ dye fluorescence, FDSS; active compounds read low; inhibition of EC80 agonist-evoked calcium signal | activity change, negative = inhibition, % (concentration not given with the values) | Q9GZU1 | 390,000 tested, 0.02% active; in the data active means activity change below about -50%; inconclusive means about -30% to -50%; inactive means above about -30%;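 further: stimulus is agonist 54-4 at its EC80 concentration; on the % scale 0 is the no-effect control and ±100 the full control effect; the text of the record puts the active cut at -80%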
#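 Tet-induced TRPML1-DL cells loaded with Ca8 no-wash calcium dye were read kinetically on FDSS. Compound addition was followed by EC80 agonist 54-4 (4 uM final); inhibition was read over 110 s.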
# TRPML1 ag: activates the human TRPML1 channel; Q9GZU1; 410,000 tested, 0.12% active; activation, % (concentration not given with the values); AID 624414; TRPML1-expressing cells, Ca2+ dye fluorescence, FDSS; host cell line not named in the record; reference of the full effect not given here; in the data active = activation above about 50%; inconclusive = about 30% to 50%; inactive = below about 30%; further: 0% is about no effect; the text of the record puts the active cut at 80%
#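 In this qHTS format, compounds were pin-transferred onto Ca8-dye-loaded TRPML1-DL cells induced with Tet overnight, and intracellular Ca2+ fluorescence was recorded kinetically for 110 s after a 10 s baseline. A subsequent 4uM final 54-4 (EC80) addition followed by a second 110 s read served as the antagonist phase.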
# CtBP-E1A inh: inhibitors of CtBP/E1A interaction. AlphaScreen GST-E1A/His-CtBP binding, 1536-well; active compounds read low; control for the full effect not named in the record. 340,000 tested, 0.49% active. activity change, % (test concentration not listed). AID 651724; in the data active means activity change below about -65%; inconclusive means about -30% to -65%; inactive means above about -30%; further: on the % scale 0 is the no-effect control and ±100 the full control effect
#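 AlphaScreen with 125 nM GST-E1A and 125 nM His-CtBP (5X stocks) in Tris pH 8.0, 300 mM NaCl, BSA, Tween 20, TCEP. Compounds preincubated 2 h at 37 deg C, then glutathione donor/nickel acceptor beads added for 1 h at 37 deg C in dark.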
# TRPV1 potentiator: enhances activation of the human vanilloid receptor TRPV1; 320,000 tested, 0.02% active; TRPV1-expressing cells, Fluo-8 calcium influx, capsaicin EC20 potentiation; host cell line not named in the record; control for the full effect not named in the record; potentiation, % at 8.33 µM; active means potentiation above 80%; inconclusive means 30% to 80%; inactive means below 30%; further: 0% is about no effect
#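 TRPV1-expressing cells were cultured overnight at 35.5C and loaded with Fluo-8 calcium dye for 40 to 90 min at room temperature. After a 10 s baseline, compound was added and calcium influx was read kinetically for 3 min (ex 480/em 520 nm).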
# D2 potentiator: human D2 receptor positive allosteric modulation | AID 624464 | DiscoveRx D2 beta-arrestin cells, luminescence, 90 min; 100% = 57 uM dopamine signal | 360,000 tested, 0.23% active | P14416 | potentiation, % (no concentration beside the values); active = potentiation of 50% or more; inconclusive = 30% to 50%; inactive = 30% or less;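 further: compound concentration not given in the record; tested on top of an EC20 dose of dopamine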
#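 PathHunter D2 cells, attached overnight at 37 deg C, received compound in DMSO plus dopamine at EC20 (50 nM final) for 90 min at 37 deg C. Beta-arrestin recruitment was read as luminescence after 1 h with detection reagent at ambient temperature.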
# Numbers without * were called inactive; ? = inconclusive; · = no result given.
SMILES,Six1-Eya2 blk,TRPML1 inh,TRPML1 ag,CtBP-E1A inh,TRPV1 potentiator,D2 potentiator
Cc1cccc2c1cnn2C(=O)CCC(=O)N1CCC(C)CC1,0,-5,0.4,-2,-1,-2
COc1cccc(N2CC(O)=C(c3nc4ccccc4c(=O)[nH]3)C2=N)c1,-17,6,0.0,1,7,-14
CCOC(=O)c1cc2c(ccn2C)n1Cc1ccccc1C,?,32,0.5,4,-5,5
COc1cccc(C(=O)COC(=O)C(C)N2C(=O)c3ccccc3C2=O)c1 (centres undefined),2,20,0.3,-11,1,-6
COc1ccc(Cc2noc(CN3CCN(c4ccc(Cl)cn4)CC3)n2)cc1OC,-7,2,-0.1,2,0,-1
CCN(C(=O)CSc1nnc(-c2ccncc2)n1-c1ccccc1)C1CCS(=O)(=O)C1 (centres undefined),4,13,0.0,4,1,-5
CC(C)(C)N1C(=O)c2ccc(C(=O)Nc3nccs3)cc2C1=O,7,23,-0.1,-1,-6,-16
O=C(NCCCN1CCOCC1)c1ccccc1-c1ccccc1,8,9,0.3,2,5,-11
Cc1cc(-c2nnc(SCC(=O)Nc3ccccc3)n2C)no1,7,12,-0.2,-1,5,-13
CCOC(=O)C1(C)NC(c2ccco2)C2C(=O)N(C)C(=O)C21 (centres undefined),3,7,-0.5,-25,10,-2
COc1cc2c(O)c3c(c(-c4ccc5c(c4)OCO5)c2cc1OC)C(=O)OC3,-19,-13,1.3,-15,14,25
Cc1cc(-c2ccccc2)nc(Nc2nc3c(C)cccc3c(=O)[nH]2)n1,-1,·,·,0,·,2
CC(=O)c1ccc(OC(=O)C2c3ccccc3Oc3ccccc32)cc1,-1,9,0.1,7,18,-2
CCOc1ccc(N=C2NC(=O)CS2)cc1,4,-12,1.0,-3,8,-4
CCN(CC(=O)Nc1ccc(NC(C)=O)cc1)C(=O)Cc1ccccc1F,0,-7,0.3,3,-13,-5
Cc1cc(C)c(S(=O)(=O)Nc2cccc(/C=C/C(=O)O)c2)c(C)c1,-5,0,-0.3,2,-1,-3
CCOC(=O)c1ccc(CC(=O)c2ccc(O)c(O)c2O)o1,-2,25,2.5,-14,9,25
C/C=C/c1ccc(OCCOc2cc(C=O)ccc2OC)c(OC)c1,-7,65,-0.5,1,2,0
CN(CC(=O)Nc1cccc(F)c1)C(=O)c1cn(-c2ccccc2)nc1-c1ccccc1,4,17,-0.3,-1,-3,3
S=C(NCc1ccc2[nH]c3c(c2c1)CCCC3)Nc1ccccc1Cl,-26,2,1.0,-29,8,-3

# Limited to D2 potentiator and TRPML1 ag (six entries from above):
Structure	D2 potentiator	TRPML1 ag
COc1cc2c(O)c3c(c(-c4ccc5c(c4)OCO5)c2cc1OC)C(=O)OC3	25	1.3
Cc1cc(-c2ccccc2)nc(Nc2nc3c(C)cccc3c(=O)[nH]2)n1	2	·
CC(=O)c1ccc(OC(=O)C2c3ccccc3Oc3ccccc32)cc1	-2	0.1
CCOc1ccc(N=C2NC(=O)CS2)cc1	-4	1.0
CCN(CC(=O)Nc1ccc(NC(C)=O)cc1)C(=O)Cc1ccccc1F	-5	0.3
Cc1cc(C)c(S(=O)(=O)Nc2cccc(/C=C/C(=O)O)c2)c(C)c1	-3	-0.3

# (list continues)
SMILES,Six1-Eya2 blk,TRPML1 inh,TRPML1 ag,CtBP-E1A inh,TRPV1 potentiator,D2 potentiator
CCC(=O)N1c2ccc(S(=O)(=O)NCc3ccco3)cc2CC1C (centres undefined),-12,-3,3.6,·,-7,-5
CCCc1ccc(S(=O)(=O)N2CCN(C(C)C(=O)NCc3ccccc3)CC2)cc1 (centres undefined),5,60,0.8,5,27,-15
CCOC(=O)C1(CCOc2ccccc2)CCN(Cc2cccc(-n3cccn3)c2)CC1,-3,2,2.8,·,2,-19
O=C(Nc1cccc(Cl)c1)NC1CC2CCC(C1)N2Cc1cccs1 (centres undefined),1,5,1.9,·,-11,-4
CCCCNC(=O)C1(C)CCN1C(=O)c1cccc(OC(F)(F)F)c1 (centres undefined),13,·,-0.4,-15,·,-6
CC1=NN(c2ccccc2)C(=O)/C1=C\c1sccc1C,7,9,-0.3,6,4,-11
O=S(=O)(Cc1nnnn1-c1ccccc1)c1ccccc1,21,-2,-0.3,6,-2,-4
COc1ccccc1-c1nnc(SCC(=O)NC2CCCCC2)n1N,-5,-10,0.0,-3,·,-7
CN(C)/N=C/c1ccc(OS(=O)(=O)c2ccccc2)cc1,-7,-14,-0.7,-13,11,6
O=C(c1ccc2nc(-c3ccco3)c(-c3ccco3)nc2c1)N1CCN(c2ccccc2)CC1,?,-12,-0.3,-21,-25,4
COc1ccc2c(c1)C(c1ccccc1)NC(=O)C2 (centres undefined),2,1,0.2,·,0,-3
Cc1ccc(Cl)cc1NC(=S)N(CCN(C)C)C(C)c1ccccn1 (centres undefined),?,11,0.8,?,-11,-12
CCn1c(SCC(=O)Nc2cc(C)on2)nnc1-c1ccncc1,-2,-1,-0.6,1,20,-11
Cc1ccc(S(=O)(=O)N(C)C[C@@H]2Oc3ncc(Br)cc3C(=O)N([C@H](C)CO)C[C@@H]2C)cc1,10,3,0.8,-2,·,-5
O=C(NCc1ccccc1CN1CCCC1)c1cccc(S(=O)(=O)N2CCCC2)c1,6,-6,-0.4,·,?,-38
COC(=O)C1=C(Nc2ccc(C)cc2)C=C(C)C(C(=O)OC)C1c1ccc(OC)cc1 (centres undefined),16,-7,0.2,17,28,-10
CN(CC(=O)NC1CCCCC1)S(=O)(=O)c1ccc(Cl)cc1,8,-7,0.2,6,8,-3
Cc1cccc(-c2nnc(SCC(=O)NC3CCCC3)o2)c1,-2,0,0.8,9,-2,-3
Cc1ccccc1CC(=O)N1CCN(S(=O)(=O)c2ccc(Cl)s2)CC1,2,0,0.2,-4,·,-14
OCC1N=C(c2ccccn2)OC1c1ccccc1 (centres undefined),4,1,-0.1,5,-7,2
O=[N+]([O-])c1cc([N+](=O)[O-])c(N2CCOCC2)cc1NCc1ccccc1,-23,28,-0.1,1,2,-7
CC(=O)/C(=N/Nc1cccc(Cl)c1)N1CCOCC1,-6,-4,0.1,-1,-2,7
Fc1c(F)c(F)c(/C=N/NC(=S)Nc2cccnc2)c(F)c1F,0,-3,-0.5,-1,-27,-12
O=C(Nc1ccc(F)cc1)NC1CCN(Cc2ccccc2)CC1,12,3,0.5,·,-22,-13
O=C(Nc1nc2c(s1)CCCC2)c1cc(-c2ccccc2)nc2ccccc12,0,12,0.9,4,-5,-28
Cc1ccc(N2CC(C(=O)NCc3cccs3)CC2=O)cc1C (centres undefined),0,20,0.8,0,-4,-15
COc1cccc2cc(C(=O)NCCc3ccccc3)c(=O)oc12,2,-2,-1.6,11,-2,-4
CCCn1c(NC(=O)CN2C(=O)NC3(CCCCC3)C2=O)nc2ccccc21,-5,-10,1.4,-2,-2,-47
CC(=O)c1sc(-c2cccc(Cl)c2)nc1C,10,62,0.5,8,-1,-1
COc1ccccc1C(=O)Nc1ccc(Nc2ccccc2)cc1,3,-5,0.1,1,·,-9
CCn1c(SCC(=O)c2ccc(CNC(C)=O)o2)nnc1-c1cccs1,-5,20,-0.7,1,10,-6
O=C(Nc1nnc(CCN2CCCCC2)s1)c1ccc(Cl)cc1Cl,4,0,0.8,·,5,-1
C[C@H](NC(=O)[C@H](Cc1ccccc1)n1c(=O)[nH]c2ccccc2c1=O)C(=O)N1CCC[C@H]1C(=O)O,-5,20,-0.1,-2,3,-6
COC(=O)c1cccc(NC(=O)/C=C/c2ccc([N+](=O)[O-])cc2)c1,7,-1,0.0,3,-14,0
CCOC(=O)c1c(C)[nH]c(C)c1S(=O)(=O)NCCc1ccco1,-5,-28,0.5,-11,-7,-13
COc1ccc(C(=O)NCC2(c3ccccc3)CCOCC2)cc1,2,9,-0.2,-2,-8,-10
Cc1c(Cl)cccc1NC(=S)NNS(=O)(=O)c1ccc([N+](=O)[O-])cc1,1,-1,0.0,-3,9,12
COc1cc(C(=O)Nc2ccc(C)cc2C(NCC(=O)NN)c2ccccc2)cc(OC)c1OC (centres undefined),-1,-6,1.0,-2,15,-15
O=C(c1cccc(Br)c1)c1nc2ccccc2[nH]c1=O,13,·,-0.3,0,·,-7
CC(=O)c1ccc(S(=O)(=O)N2CCN(C(=O)c3ccc(N)c([N+](=O)[O-])c3)CC2)cc1,-7,-1,-0.3,1,4,8

# Next part; the last 2 above are carried over.
SMILES,Six1-Eya2 blk,TRPML1 inh,TRPML1 ag,CtBP-E1A inh,TRPV1 potentiator,D2 potentiator
O=C(c1cccc(Br)c1)c1nc2ccccc2[nH]c1=O,13,·,-0.3,0,·,-7
CC(=O)c1ccc(S(=O)(=O)N2CCN(C(=O)c3ccc(N)c([N+](=O)[O-])c3)CC2)cc1,-7,-1,-0.3,1,4,8
CC(=O)Oc1ccccc1C(=O)Nc1ccccc1C(=O)N1CCCCC1,21,-14,1.0,0,6,-11
O=C(NC1CCN(Cc2ccccc2)CC1)C1CCN(S(=O)(=O)c2ccc(Cl)cc2)CC1,4,33,0.2,-9,3,-17
CCOC(=O)c1c(NC(=O)Cc2ccccc2)sc2c1CCN(C)C2,8,-6,0.2,23,-11,-13
CCS(=O)(=O)c1ccc(O)c(NC(=O)Nc2ccc(C(C)(C)C)cc2)c1,?,-12,-0.7,-1,5,-3
CCCCC(=O)N(C)c1c(CC)nc2c(OCC(=O)N(C)C)cccn12,2,·,-0.3,3,·,0
COc1ncccc1C(=O)N1CCCC(C(=O)c2cccc(OC(C)C)c2)C1 (centres undefined),2,-2,-0.1,5,1,3
O=C(Cc1ccc(S(=O)(=O)N2CCCC2)s1)N1CCN(c2ccccc2)CC1,6,7,-0.9,-10,7,8
COc1ccc2[nH]c3c(c2c1)CCN1C(=O)C(CC(=O)NCc2cccc(C(F)(F)F)c2)C[C@H](C(=O)N2CCOCC2)[C@@]31C (some centres undefined),20,-15,0.8,0,·,2
Cc1cc(C)cc(C(=O)OCC(=O)NCC(F)(F)F)c1,2,4,0.5,3,?,-3
N#Cc1cc(Oc2ccccc2)c(-n2nnc3ccccc32)cc1C#N,8,-17,3.0,7,4,25
CC(C)=CCc1c2c(c3occ(-c4ccc(O)cc4)c(=O)c3c1O)C=CC(C)(C)O2,-15,·,·,?,6,-24
CCCCn1c(SCc2ccc(C(=O)OC)o2)nc2cc(S(N)(=O)=O)ccc21,-3,0,1.4,2,-3,17
COc1ccc(Cl)cc1NC(=O)CN(C)C(=O)c1ccc2n[nH]nc2c1,10,-7,0.0,·,4,-15
Cc1ccc(SCc2ccc(C(=O)Nc3nccs3)o2)cc1,-8,11,3.0,0,-4,-15
Cc1ccccc1S(=O)(=O)NC(=O)C1(C)CCN1C(=O)CC(c1ccccc1)c1ccccc1 (centres undefined),1,·,-0.5,5,·,3
Cn1c(Cc2ccccc2)nnc1SCC(=O)c1ccc(Br)s1,5,-12,-0.7,0,-31,-5
CC(=O)Nc1ccc(S(=O)(=O)NC(C)C(=O)OCCOc2ccc(F)cc2)cc1 (centres undefined),4,3,-0.1,·,4,-2
Cc1cccc(NC(=S)N(CCN(C)C)C(C)c2cccnc2)c1 (centres undefined),23,12,-0.2,-14,-15,-8
C[C@@H]1CN([C@@H](C)CO)C(=O)CCCn2cc(nn2)CO[C@H]1CN(C)S(=O)(=O)c1ccccc1,-2,17,-0.5,3,·,-4
